# PINK1 modulator – PINK1 expression modulation. AID 624263. PINK1 immunofluorescence, high-content cytometry, 24 h. 410,000 compounds, 0.2% hits. Potency, µM (doses to about 76.6 µM), inactives show at the highest dose activation (PINK1 increase), actives largely listed as activators; active = well fitted activation curve with a large enough effect; inconclusive = small, poorly fitted or top-dose-only effect; inactive = flat fitted curve, though single readings scatter; cell line not stated here;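 note: potency is the fitted concentration of half-maximal effect; % of control where 0% means no effect; nearly all actives have a fitted effect of over 65% in size; a mitochondrial uncoupler was the plate control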
#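 Decision-based qHTS: stable cells, 24 h exposure to five compound concentrations, CCCP as control. Fixed cells stained for PINK1 plus nuclear, mitochondrial and cell markers, cytometer read.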
# TRPML1 blocker – human mucolipin-1 channel inhibition. TRPML1-inducible cells, Ca2+ dye fluorescence, FDSS; hits give low values; inhibition of EC80 agonist-evoked calcium signal. activity change, negative = inhibition, % (concentration not given with the values). 390,000 compounds, 0.02% hits; in the data active means activity change below about -50%; inconclusive means about -30% to -50%; inactive means above about -30%;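 note: stimulus is agonist 54-4 at its EC80 concentration; % is set by controls: 0 for no effect and ±100 for the full control effect; the text of the record puts the active cut at -80%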
# Target sequence (Q9GZU1 whole entry, looked up): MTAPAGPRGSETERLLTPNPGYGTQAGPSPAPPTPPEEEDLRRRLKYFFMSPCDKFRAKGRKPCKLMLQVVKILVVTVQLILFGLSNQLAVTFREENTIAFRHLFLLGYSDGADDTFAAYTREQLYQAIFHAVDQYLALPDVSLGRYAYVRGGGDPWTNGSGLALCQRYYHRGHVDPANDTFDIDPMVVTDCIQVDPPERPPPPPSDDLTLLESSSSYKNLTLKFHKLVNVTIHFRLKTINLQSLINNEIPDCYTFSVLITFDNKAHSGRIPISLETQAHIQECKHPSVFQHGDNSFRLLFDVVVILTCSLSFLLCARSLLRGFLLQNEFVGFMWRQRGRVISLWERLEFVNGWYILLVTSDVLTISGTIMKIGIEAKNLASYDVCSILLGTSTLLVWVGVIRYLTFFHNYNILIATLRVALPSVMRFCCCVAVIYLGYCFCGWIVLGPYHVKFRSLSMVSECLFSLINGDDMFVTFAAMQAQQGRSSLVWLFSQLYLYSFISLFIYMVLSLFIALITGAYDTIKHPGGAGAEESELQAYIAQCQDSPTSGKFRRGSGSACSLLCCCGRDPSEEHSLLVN
#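 Tet-induced TRPML1-DL cells loaded with Ca8 no-wash calcium dye were read kinetically on FDSS. Compound addition was followed by EC80 agonist 54-4 (4 uM final); inhibition was read over 110 s.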
# CtBP-E1A inh – blocks the CtBP interaction with E1A; AlphaScreen GST-E1A/His-CtBP binding, 1536-well; hits give low values; control for the full effect not named in the record; AID 651724; 340,000 compounds, 0.49% hits; activity change, % (concentration not given with the values); in the data active means activity change below about -65%; inconclusive means about -30% to -65%; inactive means above about -30%; note: % is set by controls: 0 for no effect and ±100 for the full control effect
#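 In 5 uL wells, 23 nL compound meets equimolar GST-E1A and His-CtBP (5X stock 125 nM each) for 2 h, 37 °C. Beads (5X, 50 ug/mL) then 1 h, 37 °C, dark.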
# TRPML1 agonist – agonists of human TRPML1 channel. Q9GZU1. TRPML1-expressing cells, Ca2+ dye fluorescence, FDSS; host cell line not named in the record; reference of the full effect not given here. activation, % (no concentration beside the values). 410,000 compounds, 0.12% hits; in the data active = activation above about 50%; inconclusive = about 30% to 50%; inactive = below about 30%; note: 0% is about no effect; the text of the record puts the active cut at 80%
#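 In this qHTS format, compounds were pin-transferred onto Ca8-dye-loaded TRPML1-DL cells induced with Tet overnight, and intracellular Ca2+ fluorescence was recorded kinetically for 110 s after a 10 s baseline. A subsequent 4uM final 54-4 (EC80) addition followed by a second 110 s read served as the antagonist phase.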
# D2 ag – human D2 receptor agonism in beta-arrestin assay | P14416 | DiscoveRx PathHunter D2 beta-arrestin, luminescence, 90 min; 100% = 57 uM dopamine signal | activation, % (no concentration beside the values) | 360,000 compounds, 0.084% hits; in the data active = activation above about 40%; inconclusive = about 15% to 40%; inactive = below about 15%; note: compound concentration not given in the record; the text of the record calls up to 30% inactive
# Target sequence (P14416 whole entry, looked up): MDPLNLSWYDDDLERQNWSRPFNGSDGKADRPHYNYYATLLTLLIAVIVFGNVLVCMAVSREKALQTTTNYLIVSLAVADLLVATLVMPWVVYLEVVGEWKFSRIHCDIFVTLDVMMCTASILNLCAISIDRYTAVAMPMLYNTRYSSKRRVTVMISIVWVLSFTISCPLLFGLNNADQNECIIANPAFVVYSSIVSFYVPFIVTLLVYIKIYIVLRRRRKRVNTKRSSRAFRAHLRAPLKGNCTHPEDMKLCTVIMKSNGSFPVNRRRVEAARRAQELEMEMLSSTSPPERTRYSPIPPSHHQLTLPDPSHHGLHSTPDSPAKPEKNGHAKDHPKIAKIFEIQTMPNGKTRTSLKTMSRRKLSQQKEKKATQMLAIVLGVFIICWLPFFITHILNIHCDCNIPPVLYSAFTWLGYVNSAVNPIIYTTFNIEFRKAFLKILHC
#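 Agonist mode: compounds alone added to overnight-plated D2 PathHunter cells for 90 min at 37 C, with 57 uM final dopamine (EC100) defining full response. Beta-arrestin recruitment detected by chemiluminescent reagent, read after 1 h at ambient temperature.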
# Six1-Eya2 inh – Six1/Eya2 interaction inhibition | Q15475+O00167 | AlphaScreen GST-Six1/His-Eya2 binding, biochemical; hits give low values; control for the full effect not named in the record | activity change, % (concentration not given with the values) | 360,000 compounds, 0.56% hits | AID 651725; in the data active = activity change below about -65%; inconclusive = about -30% to -65%; inactive = above about -30%; note: % is set by controls: 0 for no effect and ±100 for the full control effect
#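 Six1/Eya2 binding was read as AlphaScreen signal after compounds were pinned into GST-Six1 plus His-tagged Eya2 (5X stock 250/500 nM) in pH 8.0 Tris/NaCl/TCEP buffer, beads added, then incubated 1 h, 37 C, dark.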
# Numbers without * were called inactive; ? = inconclusive; / = no result given; & = joins results of further samples; [ ] = another dose, or the depositor's remark.
SMILES,PINK1 modulator,TRPML1 blocker,CtBP-E1A inh,TRPML1 agonist,D2 ag,Six1-Eya2 inh
CCCCn1nc(NC(=O)c2cccc(Cl)c2)c2cc3ccc(C)cc3nc21,0.5%,-14.5,/,-0.1,/,/
CCCC1=NN(C(=O)C(=O)Nc2ccc(Br)cc2)C(O)(C(F)(F)F)C1 (stereo not drawn),?,-2.9,-2.0,-0.4,-4.0,0.1
COc1ccc(NC(=O)CSc2nnnn2-c2ccccc2OC)c(OC)c1,-0.8%,23.8,-4.7,0.4,6.7,2.1
CCCN(CC(=O)Nc1ccccc1OC)C(=O)c1ccc2[nH]c3c(c2c1)CC(C)CC3 (stereo not drawn),-1.5%,37.9,-9.7,3.1,1.9,-20.7
CN(CCOc1ccc(-c2ccn(S(=O)(=O)c3ccc(Cl)cc3)n2)cc1)c1ccccn1,-1.1%,-2.3,1.9,0.1,-0.7,-14.3
Cc1cc(Cl)cc2sc(NC(=O)C3CC3)nc12,7.5%,-9.9,2.6,0.3,3.5,3.6
C=CCNC(=O)Nc1ccc(F)cc1F,-0.2%,-3.4,-0.5,-0.2,-1.1,-3.8
CCCCNC(=S)NNC(=O)c1nn(C)c(C)c1Cl,-2.0%,-10.0,-6.9,-0.6,-4.3,-2.9
Cc1nc2ccccn2c1C(=O)CSc1ccccc1,2.2%,19.3,6.0,1.5,3.1,-4.1
CCOC(=O)Cc1csc(NC(=O)c2ccc(C)o2)n1,4.3%[38.3 µM],3.7,-2.0,0.3,1.4,0.0
O=C(COC(=O)c1ccc2c(c1)S(=O)(=O)N=C1CCCCCN12)NCCc1ccc(F)cc1,0.4%,-23.2,4.7,0.6,-1.9,-4.3
O=C(CCC(=O)c1cccs1)NNC(=O)c1cccc(Cl)c1,2.5%,39.1,-12.8,0.2,-5.3,5.8
CC(C)Nc1nnc(Sc2ccc(Cl)cc2[N+](=O)[O-])s1,0.4%,-14.0,-5.0,1.7,3.8,-12.6
COc1ccc(CC(=O)NCCc2ccc(Cl)cc2Cl)cc1,0.7%,-3.1,10.8,2.1,-2.4,21.1
COc1cccc(C(=O)N/N=c2/oc3ccccc3cc2C(N)=O)c1,3.8%,16.3,?,1.2,-1.4,?
CCC1CCCCN1C(=O)CCn1ccnc1 (stereo not drawn),0.8%,19.6,-8.0,3.4,1.4,5.8
CCCC1CC(c2csc(N)n2)CCO1 (stereo not drawn),0.2%,-5.1,9.3,-1.1,-4.2,-3.8
CC(C)CNc1nc(N)c([N+](=O)[O-])c(N2CCCCCC2)n1,0.1%,15.0,-17.0,4.1,-4.8,-14.2
Cc1cc(C)c(CN2CCN(C(=O)Cn3cnc(C(=O)Nc4ccc(C)c(C)c4)n3)CC2)c(C)c1,?,-5.2,-9.7,0.2,0.1,3.2
COc1cccc(Cl)c1NC(=O)N1CCN(c2cc(C)nc3ccccc23)CC1,1.9%,-7.8,-1.6,0.2,-3.4,-28.2
COc1cccc(C2C3=C(CC(C)(C)CC3=O)Nc3cc(OC)c(OC)cc32)c1 (stereo not drawn),0.8%,44.2,-16.6,0.5,-5.3,12.0
O=C(Nc1ccccc1)c1cc(C2CCCN(C(=O)OCc3ccccc3)C2)on1 (stereo not drawn),-1.0%,/,4.0,-0.3,-1.2,4.9
Cc1ccc2nc3c(cc2c1)c(NS(=O)(=O)c1ccccc1)nn3CC(C)C,17.7%,-11.9,15.7,-0.7,-2.6,0.8
Cc1cn(C2CC(O)C(CO)O2)c(=O)n(Cc2ccccc2)c1=O (stereo not drawn),1.5%,-15.4,9.1,-0.2,-0.3,0.2
CCCC(c1nnnn1Cc1cccs1)N1CCN(c2nc3ccccc3s2)CC1 (stereo not drawn),-1.8%,-17.6,-4.5,61.1*,-2.0,-0.8

# Following part
SMILES,PINK1 modulator,TRPML1 blocker,CtBP-E1A inh,TRPML1 agonist,D2 ag,Six1-Eya2 inh
N#CCCC(C#N)(c1cccnc1)N1CCOCC1 (stereo not drawn),-0.7%,6.7,-4.8,0.1,-3.3,0.6
O=C(CNC(=O)C1COc2ccccc2O1)N/N=C\c1ccc(Br)cc1 (stereo not drawn),1.7%,14.3,-10.4,0.7,3.7,3.5
NNC(=O)CCc1nc2ccc(O)cc2[nH]1,-0.5%,-9.5,8.5,1.6,1.4,-1.9
O=C(NCCc1ccc2c(c1)OCCO2)c1cccc(S(=O)(=O)N2CCCC2)c1,0.3%,4.9,/,-0.7,-1.5,-0.8
Cc1ccc(NS(=O)(=O)c2ccc(Cl)c(C(=O)Nc3ccccc3-c3nc4ccccc4[nH]3)c2)cc1C,18.6%,9.0,-4.0,0.2,4.7,-1.2
COc1ccc(NC(=O)CSc2nc(C3CC3)nc3ccccc23)cc1,4.5%,-6.0,-4.8,-0.4,-1.5,-7.2
CCOC(=O)C1=C(C)OC(N)=C(C#N)C1c1ccccc1 (stereo not drawn),1.3%,8.3,12.6,-0.5,-2.3,3.1
CC(C)(C)C1(O)CC(C(F)(F)F)=NN1C(=O)CCCc1ccccc1 (stereo not drawn),?,-0.9,15.5,1.0,-1.9,16.7
O=C(NCc1ccccn1)c1cn(Cc2ccccc2)nn1,-1.2%,-10.4,12.2,-0.4,-1.8,-1.4
CC[C@@H](C)[C@@H](CO)NC(=O)[C@H]1O[C@@H](n2cnc3c(N)ncnc32)[C@H](O)[C@@H]1O,0.5%,12.8,8.3,-0.2,-5.2,3.1
O=C(NC12CC3CC(CC(C3)C1)C2)C1CCCN1C(=O)Nc1ccccc1 (stereo not drawn),-0.6%,14.5,6.3,0.4,-1.9,-2.9
CCN1CCN(C(=O)c2sc3ncnc(N4CCc5ccccc5C4)c3c2C)CC1,0.1%,35.1,/,0.5,-0.3,4.6
Oc1[nH]c2ccccc2c1N=NC(=S)N1CCOCC1,-0.1%,16.7,-65.8*,-0.6,-5.6,-91.7*
Cn1c(SCC(=O)NCc2ccco2)nnc1C1CCCC1,-0.2%,24.6,7.8,-0.3,-0.2,1.4
CCC/C(=N/NC(=O)c1ccc2c(c1)OCO2)c1cccs1,-0.2%,5.9,6.1,-1.7,-8.9,5.8
Cc1ccc(NC(=O)NC(=O)N(C2CCCCC2)S(=O)(=O)c2ccccc2)cc1,4.2%,-4.8,3.1,-0.5,-1.2,2.0
COCCn1cnc2c1c(=O)n(CC(=O)NC1CCCCC1)c(=O)n2Cc1ccccc1,0.0%,-5.3,-3.6,-0.4,-4.6,4.7
CN(CC(=O)Nc1c(Cl)cccc1Cl)C(=O)CCC(=O)c1ccccc1,1.0%,5.0,2.8,-1.1,-3.2,0.4
Cc1cc(OCc2cc(C(=O)N(C)C3CCOC3)no2)cc(C)c1Cl (stereo not drawn),0.8%,0.3,0.0,2.6,1.8,20.3
O=C(Nc1ccc2oc(-c3cccc4c(Br)cccc34)nc2c1)c1ccc(F)cc1,1.3%,0.4,/,-0.5,/,/
CC(C)OC(=O)NCCOC(=O)Nc1ccc(Cl)cc1,2.5%,14.7,/,1.0,12.2,-7.6
N#Cc1c(-c2ccccc2)cc2nc3ccccc3n2c1N,6.6%,-6.9,-22.6,2.1,7.1,-7.6
O=C(CN1CCSc2ccccc21)N1CCN(c2ccc(F)cc2)CC1,?,-1.0,/,4.5,/,/
Cc1ccccc1NC1=C(Cl)C(=O)OC1NC(=O)c1ccccc1 (stereo not drawn),-5.4%[38.3 µM],0.2,0.6,0.0,-0.1,4.0
COC(=O)Nc1nnc(-c2ccco2)s1,0.0%,5.5,-0.9,0.1,-0.9,-3.2

# Continuation:
SMILES,PINK1 modulator,TRPML1 blocker,CtBP-E1A inh,TRPML1 agonist,D2 ag,Six1-Eya2 inh
COc1cc(CN2CCCC(CO)(Cc3cccc(Cl)c3)C2)cc2c1OCO2 (stereo not drawn),13.8%,/,-14.7,/,-4.1,-6.4
Cc1cccc(NC(=O)COc2cccc3c2CCNC3=O)c1,2.1%,2.5,-4.5,-0.7,-2.5,-3.8
CCCCN1CC[C@H]2C=CC[C@@H](C(=O)Nc3ccc(OC)cc3)[C@H]2C1=O,-1.6%,-4.0,8.1,-0.7&-1.0,-3.8,5.0
C[C@@H]1C(=O)O[C@@H]2[C@H](O)C34[C@H]5C[C@@H](C(C)(C)C)C36[C@H](OC(=O)[C@@H]6O)OC4(C(=O)O5)[C@@]12O (stereo partly drawn),0.6%,10.6,/,0.4,-2.8,7.0
CCCCN1CNC(=S)N(CCc2ccccc2)C1,-0.1%,7.4,-3.2,-0.4,-7.3,1.1
COc1ccccc1OCCC(=O)OCC(=O)Nc1ccc2c(c1)OCO2,-1.7%,5.4,-5.2,1.1,-0.1,-6.4
CN1CCN(C(=O)CNc2ccc(C(F)(F)F)cc2[N+](=O)[O-])CC1,2.4%,17.8,16.1,1.2,-2.3,1.8
NCCOc1ccccc1-c1ccccc1,0.1%,5.8,-2.9,0.1,-4.5,-2.3
O=C(OCc1c(F)cccc1Cl)c1cc([N+](=O)[O-])ccc1N1CCOCC1,1.1%,-6.0,-13.1,2.5,-3.7,-15.4
C[C@@H]1CN([C@H](C)CO)C(=O)CCCn2nncc2CO[C@H]1CN(C)S(=O)(=O)c1ccc2c(c1)OCCCO2,0.1%,-14.7,3.5,-0.4,-8.4,3.1
Cc1ccc(NC(=O)c2nc[nH]c2C(=O)N2CCc3ccccc3C2)cc1,0.8%,7.1,1.8,-1.2,-3.1,0.6
C=CCN(CC=C)C(=O)COC(=O)c1n[nH]c2ccccc12,-1.0%,-0.7,4.4,0.1,-1.9,3.3
Cc1ccc2c(c1)nc1c3ccccc3nc(-c3ccccc3N)n21,1.3%,6.3,-13.8,0.4,-3.2,3.7
CCOC(=O)c1ccc(NC(=S)NC(=O)C2CCCC2)cc1,1.5%,-9.7,10.4,2.8,-4.4,2.1
NNC(=O)CCn1nnc2ccccc21,1.6%,7.6,7.9,0.2,4.0,7.6
CC(=O)Nc1ccccc1NC(=O)c1cc(C)ccc1C,1.5%,-2.4,/,-0.6,0.9,19.1
CCCCOc1ccc(C2=NNC(=O)CC2)cc1,-3.8%,31.4,-15.2,0.0,-2.7,-21.6
CCCC(=O)N(CCN1CCOCC1)c1nc2cc(C)c(C)cc2s1,2.6%,7.3,-1.0,0.6,-2.8,-1.5
O=C(COc1ccccc1)NCCc1csc(-c2cccc(F)c2)n1,0.8%,-26.6,/,1.4,/,/
CCOc1ccc(-c2[nH]nc3c2C(c2cccnc2)C(C#N)=C(N)O3)cc1 (stereo not drawn),0.1%,7.7,-0.1,0.2,1.1,-8.6
O=C(Cn1nc(C(=O)O)c2ccccc2c1=O)Nc1cccc(Br)c1,0.8%,18.7,-2.0,2.5,1.1,-6.8
O=C(N/N=C\c1c(O)ccc2ccccc12)c1ccc(Cn2cccn2)o1,?,12.0,-73.0*,6.8,3.1,-85.6*
Cc1cc(NO)nc(-c2ccc(Br)cc2)n1,5.5%[38.3 µM],-1.6,-6.1,-0.5,11.3,-1.8
CCCS(=O)(=O)Nc1c(C(=O)OC)[nH]c2ccccc12,-2.1%,-26.9,15.4,-0.4,-6.9,-24.5

# From PubChem
